# Mtb H37Rv: Confirmatory growth inhibition assay against Mycobacterium tuberculosis H37Rv, potency (AID 1949). 1.6% of 100,000 active. inhibition, % at 10 µg/mL, or IC50 in µg/mL where a hit was titrated. most inactive calls were filed without a number and no value below 0 was filed;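 active means confirmed in a dose series; inconclusive means about 50% or more but not retested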;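 further: bacteria grown 7 days with compound before Alamar blue readout; 0% = untreated bacteria and 100% = reference antibiotic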
# * marks the source's active call; other numbers are inactive results; i = inactive; ? = inconclusive. A portion of the library; count on the stated rates, not on these rows.
SMILES,Mtb H37Rv
CCCC(=O)Nc1ccccc1NC(=O)c1c(OC)cccc1OC,i
O=C(Nc1ccc(Cl)cc1)Nc1nnc(-c2ccccc2)o1,?
CCOc1ccc(NC(=O)C2CC(=O)n3c(nc4ccccc43)N2)cc1 (stereo not given),i
Cc1onc(-c2c(F)cccc2Cl)c1C(=O)NC(=S)Nc1ccccc1C(N)=O,i
CCCNC(=O)c1cccc(NC(=O)C(C)C)c1,3%
CC(=O)c1ccc2c3c(ccc(O)c13)CC2,i
CCCC1Nc2ccc(C(=O)O)cc2C2C=CCC12 (stereo not given),i
CCOc1ccc(NC(=O)CSc2nc(-c3ccccc3)cs2)cc1,17%
C=CCc1ccccc1OCCOc1ccc(C=O)cc1OC,33%
O=C1C2C3C=CC(C4CC34)C2C(=O)N1N=Cc1ccc(-c2ccc([N+](=O)[O-])cc2)o1 (stereo not given),1%
Cc1cc(Br)c(NC(=S)NC(=O)c2cccc(OC(C)C)c2)cc1C,10%
Cc1ccc(CSCC(=O)N2CCN(c3cccc(Cl)c3)CC2)cc1,0%
Sc1nc(-c2ccccc2)oc1C=Nc1ccccc1,i
O=C(CSc1nnc(C23CC4CC(CC(C4)C2)C3)o1)Nc1ccc(N2CCOCC2)c(Cl)c1,i
CCOc1ccc2nc(SC3CC(=O)N(c4cccc(C)c4)C3=O)sc2c1 (stereo not given),32%
Cc1cc(C(=O)NCc2cccnc2)c2cc(F)ccc2n1,i
CCc1ccc(N2CCN(S(=O)(=O)c3cc(OC)ccc3OC)CC2)cc1,i
COc1ccc(Cc2nc3ccccc3[nH]2)cc1OC,i
COc1ccc(CCNC(=O)c2cnn3c(C(F)(F)F)cc(-c4ccco4)nc23)cc1OC,i
COc1cc(NC(=O)CCSc2ccccc2)cc(OC)c1OC,i
O=C1OC(N2CCN(Cc3ccc4c(c3)OCO4)CC2)c2ccccc21 (stereo not given),i
O=C(NC(=S)Nc1ccc(Cl)c(C(=O)O)c1)c1ccco1,i
COc1ccc(NC(=O)c2ccc(N(C)S(=O)(=O)c3ccc(C)cc3)cc2)cc1Cl,i
Cc1ccc(C(=O)COc2ccc3c4c(c(=O)oc3c2C)CCC4)cc1,i
CCc1ccccc1NC(=O)c1ccc(C)o1,i
CCc1ccccc1NC(=O)c1cccs1,5%
CCN(CC)CCn1c(=N)n(CC(O)COc2ccc(C)cc2)c2ccccc21 (stereo not given),i
COc1ccc(CCNCc2ccccc2C(F)(F)F)cc1,i
O=C(Cn1c(=O)oc2ccccc21)Nc1nc(-c2ccccc2)cs1,i
Cc1c(NC(=O)CCCC(=O)O)cccc1C(=O)O,i
COc1ccc2c(=O)c(Oc3ccccc3Cl)coc2c1,3%
COc1cc([N+](=O)[O-])ccc1NC(=S)Nc1ccc(C)cn1,i
CCc1cc(OCCN2CCCC(C)C2)ccc1Cl (stereo not given),i
CC(C)c1ccc(/C=C(\C#N)c2nc3ccccc3[nH]2)cc1,1%
Cc1ccc(NC(=O)C2Cc3ccccc3CN2S(=O)(=O)c2ccc(F)cc2)c(C)c1 (stereo not given),i
CCC(C)c1ccc(OCC(=O)Nc2ccc(CN3CCOCC3)cc2)cc1 (stereo not given),?
OCCNc1nc2ccccc2n1CCOc1ccccc1,i
O=C(COc1ccc(S(=O)(=O)N2CCOCC2)cc1)NCc1ccccn1,i
O=S(=O)(Nc1ncccn1)c1ccc(NC(=S)NCc2cccs2)cc1,i
Cc1ccccc1OCC(=O)NC(=S)Nc1ccc(I)c(C)n1,i
CC(C)(C)OC(=O)COc1ccc2c(C(F)(F)F)cc(=O)oc2c1,i
CCOC(=O)c1cc(Cc2ccccc2)sc1NC(=S)NCCc1ccc(OC)c(OC)c1,4%
CC(Oc1ccc(Br)cc1)C(=O)NC1CCCC1 (stereo not given),i
CCOc1ccccc1C1Nc2ccccc2NC2=C1C(=O)CC(c1ccc(OC)cc1)C2 (stereo not given),i
COc1ccc(C2(C(=O)Nc3ccc(C)cc3)CCOCC2)cc1OC,i
N#Cc1cn(CC(=O)NCCc2ccccc2)c2ccc(Br)cc12,4%
O=C(CSc1nnc(-c2ccco2)o1)Nc1cccc2ccccc12,i
O=C(NCc1ccccc1)N(c1ccccc1)c1ccccc1,i
Cc1ccc(S(=O)(=O)N2CCCC(C(=O)N3CCCCC3)C2)cc1 (stereo not given),i
Cc1ccc(C(=O)Nc2ccc(C)c(Cl)c2)o1,26%
COc1ccc(-c2ccc(C#N)c(SCc3cccc(F)c3)n2)cc1OC,i
COc1cc(CN2CCN(C(=O)Cc3ccccc3)CC2)cc(OC)c1OC,i
O=S1(=O)C=CC(N2CCCCC2)C1 (stereo not given),i
CC(C)(C)c1cc(Cl)ccc1OCCCCn1ccnc1,1.4µg/mL*
O=C(NC1CCCCC1)NC1CCCCC1NC(=O)NC1CCCCC1 (stereo not given),i
Nc1nnc(CCC2CCCCC2)s1,i
COCCNCCOc1ccc(C(C)C)c(C)c1,i
O=C(O)c1ccc(Cl)c(NC(=S)NC(=O)c2cccc(I)c2)c1,i
COc1ccc(OCC(=O)c2ccc(F)cc2)cc1,?
CCc1nc(SCc2ccccc2)c2c3c(sc2n1)COC(C)(C)C3,i

# (further entries)
SMILES,Mtb H37Rv
CCOC(=O)N1CCN(C(=O)COc2ccccc2OC)CC1,i
CCOC(=O)c1ccc(NS(=O)(=O)c2cc(OCC(N)=O)c(C)cc2Cl)cc1,i
Cc1cc(C)nc(Nc2n[nH]c(-c3ccc(N)cc3)n2)n1,i
COC(=O)/C=C1\SC(=Nc2ccccc2OC)NC1=O,i
O=C(NC(NC(=S)Nc1ccccc1Br)C(Cl)(Cl)Cl)c1ccccc1 (stereo not given),2%
Cc1cc(-c2ccccc2)nc(SCC(=O)Nc2nccs2)n1,i
Cc1cc(C(C)(C)C)cc(S(=O)(=O)NCC(=O)O)c1C,i
CCOC(=O)c1c(-c2ccc(OC)cc2)csc1NC(=O)c1ccc(Cl)cc1Cl,4%
OCCCc1nc2ccccc2n1Cc1ccccc1F,i
COc1ccc(NC(=O)c2cn(CCC#N)nc2-c2cccs2)cc1,i
CCCCC(=O)Nc1ccc(NC(=O)c2ccc(F)cc2)cc1OC,i
CCC1CCc2c(sc(NC(=O)CCc3ccccc3)c2C(N)=O)C1 (stereo not given),i

# Shown bar-delimited: part of the list above
Molecule | Mtb H37Rv
COc1ccc2c(=O)c(Oc3ccccc3Cl)coc2c1 | 3%
COc1cc([N+](=O)[O-])ccc1NC(=S)Nc1ccc(C)cn1 | i
CCc1cc(OCCN2CCCC(C)C2)ccc1Cl (stereo not given) | i
CC(C)c1ccc(/C=C(\C#N)c2nc3ccccc3[nH]2)cc1 | 1%
Cc1ccc(NC(=O)C2Cc3ccccc3CN2S(=O)(=O)c2ccc(F)cc2)c(C)c1 (stereo not given) | i
CCC(C)c1ccc(OCC(=O)Nc2ccc(CN3CCOCC3)cc2)cc1 (stereo not given) | ?
OCCNc1nc2ccccc2n1CCOc1ccccc1 | i
O=C(COc1ccc(S(=O)(=O)N2CCOCC2)cc1)NCc1ccccn1 | i
O=S(=O)(Nc1ncccn1)c1ccc(NC(=S)NCc2cccs2)cc1 | i
Cc1ccccc1OCC(=O)NC(=S)Nc1ccc(I)c(C)n1 | i
CC(C)(C)OC(=O)COc1ccc2c(C(F)(F)F)cc(=O)oc2c1 | i
CCOC(=O)c1cc(Cc2ccccc2)sc1NC(=S)NCCc1ccc(OC)c(OC)c1 | 4%
CC(Oc1ccc(Br)cc1)C(=O)NC1CCCC1 (stereo not given) | i
CCOc1ccccc1C1Nc2ccccc2NC2=C1C(=O)CC(c1ccc(OC)cc1)C2 (stereo not given) | i

# (list continues)
SMILES,Mtb H37Rv
O=C(Nc1ccc(Oc2ccccc2)cc1)Nc1ccccc1C(F)(F)F,i
CC(C)CC(=O)Nc1scc(-c2ccccc2)c1C(=O)Nc1ccc(Cl)cc1Cl,10%
CC12CCC(C(=O)Oc3ccc(Cl)cc3Cl)(OC1=O)C2(C)C (stereo not given),0%
O=S(=O)(Nc1ccc(O)c(-c2c(O)ccc3ccccc23)c1)c1cccs1,i
O=C(NC(=S)Nc1c(Cl)cc(Cl)cc1Cl)c1ccccc1F,i
O=S(=O)(NCc1ccc(F)cc1)c1ccc(Br)cc1,13%
CC(Oc1cccc(Cl)c1)C(=O)NC1CCCCC1 (stereo not given),i
O=C(Nc1ccc(-c2ccc(NC(=O)C(F)(F)F)cc2)cc1)C(F)(F)F,1%
COc1ccc(C)cc1N(CC(=O)Nc1ccc(F)c(F)c1)S(C)(=O)=O,i
COc1ccc(S(=O)(=O)NCCc2ccccc2)cc1Cl,2%
Cc1ccc(SCC(=O)Nc2cccnc2)cc1,i
O=C(CSc1nnnn1-c1ccc(F)cc1)NCc1ccccc1C(=O)O,i
Cc1ccc(C(C)C)c(Oc2ncnc(N)c2[N+](=O)[O-])c1,i
O=C(c1ccc(CN2CCOCC2)cc1)N1CCN(Cc2ccccc2)CC1,i
CCN(C(=O)c1ccco1)c1ccccc1C,2%
CC(C)C(=O)Nc1ncc(Cc2cc(Cl)ccc2Cl)s1,i
COc1ccc(NC(=O)c2cccnc2)cc1Cl,i
Cc1ccc(C(=O)NC(=S)Nc2ccc3c(c2)C(=O)N(C)C3=O)c(C)c1,i
COc1ccc(-c2nn(C)c(=O)c3ccccc23)cc1CNS(=O)(=O)c1ccc(C)cc1,i
CC(=O)Nc1ccc(OCC(O)CN2CCN(Cc3ccccc3)CC2)cc1 (stereo not given),i
O=C(NC1(C(F)(F)F)NC(=O)N(Cc2cccnc2)C1=O)c1cccs1 (stereo not given),i
CC(=NCc1ccccc1)c1c(O)[nH]c2ccccc12,i
COc1ccc(OC)c(NC(=O)C2CC2c2ccccc2)c1 (stereo not given),i
COc1ccc2nc(SCC(=O)Nc3ccc4c(c3)OCCO4)[nH]c2c1,i
Cc1c(Cl)cccc1NC(=O)C1CCN(C(=O)c2ccc([N+](=O)[O-])cc2)CC1,27%
COc1cc(OC)c(NC(=O)COc2cc(Cl)c(Cl)cc2Cl)cc1Cl,i
CCOc1ccc(C(=O)NC2CCCCC2)cc1Cl,i
COC(=O)c1sccc1NC(=O)c1ccncc1,i
Cc1ccc(-c2cc(C(=O)N3CCCC3)no2)cc1,i
Cc1ccc(-c2noc(-c3ccccc3F)n2)cc1,i
CSc1nc(C)cc(SCCO)n1,i
CC(C)C(=O)NC(c1ccc(Cl)cc1)c1cc([N+](=O)[O-])c2cccnc2c1O (stereo not given),i
CCOC(=O)c1c(NC(=O)C#Cc2ccccc2)sc2c1CCC2,i
CCOC(=O)COc1ccc2c(=O)c(-c3ccccc3Cl)c(C)oc2c1C,0.98µg/mL*
O=C(COc1ccc(Cl)cc1Cl)Nc1cc(C(=O)O)cc(C(=O)O)c1,i
Cc1ccc(Cl)cc1NS(=O)(=O)c1ccc(C)c(C)c1C,i
COc1ccccc1OCC(=O)Nc1cc(-c2nc3ccccc3[nH]2)ccc1C,i
O=C(CSc1nnc(Cc2ccccc2)n1-c1ccc(Cl)cc1)N1CCOCC1,i
CCC(Sc1nc(C)cc(=O)[nH]1)C(=O)Nc1sc2c(c1C#N)CCCC2 (stereo not given),i
COc1ccc(C(C)N(C)C(=O)C(c2ccccc2)c2ccccc2)cc1OC (stereo not given),i
COCCCNC(=S)Nc1ccc(Cl)cc1Cl,i
CC(C)c1nnc(N2C(=O)c3oc4ccccc4c(=O)c3C2c2ccccc2F)s1 (stereo not given),i
COc1ccc(C(=O)NCCOc2ccc(C)c(C)c2)cc1,i
O=Cc1ccccc1Oc1ccccc1[N+](=O)[O-],1%
COc1ccc(/C=C(/NC(=O)c2ccccc2Cl)C(=O)Nc2cccc(C(=O)O)c2)cc1,i
CCOC(=O)CSc1nnc(Cc2ccc(OC)c(Cl)c2)n1-c1ccccc1,2%
COc1ccc(Cl)cc1NC(=S)Nc1ccc(C(=O)O)cc1,i
CCOC(=O)c1c(NC(=S)Nc2cc([N+](=O)[O-])ccc2OC)sc2c1CCCCC2,i

# Looked up by structure from above, five records:
SMILES,Mtb H37Rv
COCCCNC(=S)Nc1ccc(Cl)cc1Cl,i
COc1ccc(C(C)N(C)C(=O)C(c2ccccc2)c2ccccc2)cc1OC (stereo not given),i
CCOC(=O)c1c(NC(=S)Nc2cc([N+](=O)[O-])ccc2OC)sc2c1CCCCC2,i
CCOC(=O)CSc1nnc(Cc2ccc(OC)c(Cl)c2)n1-c1ccccc1,2%
COc1ccc(/C=C(/NC(=O)c2ccccc2Cl)C(=O)Nc2cccc(C(=O)O)c2)cc1,i

# New compounds follow
SMILES,Mtb H37Rv
S=C(NCc1ccccc1)Nc1ccccc1,1%
COC(=O)C1=C(C)N(CCc2ccccc2)C(=O)C1,i
COC(=O)c1ccc(C(=O)OC)c(NC(=O)C(c2ccccc2)c2ccccc2)c1,i
O=C(COc1ccc(Cl)cc1)Nc1ccc(N2CCN(C(=O)c3ccco3)CC2)c(Cl)c1,1.7µg/mL*
CC(=O)Oc1ccc(C(=O)NCCCc2ccccc2)cc1,i
Cc1cccc(NC(=O)CSc2nc3ccccc3c(=O)[nH]2)c1,i
O=C(Nc1ccc(N2CCN(Cc3ccccc3)CC2)cc1)c1ccccc1[N+](=O)[O-],i
CCCC1CCc2c(sc(NC(=O)c3cccnc3)c2C#N)C1 (stereo not given),i
CC(=O)Nn1c(C)nnc1-n1nc(C)cc1C,i
O=C(Nc1ccccc1Br)c1ccc(Cl)c(S(=O)(=O)N2CCOCC2)c1,i
COc1cccc(C(=O)NC(C)c2ccccc2)c1OC (stereo not given),i
CC(SCc1ccccc1)C(=O)Nc1ccccc1-c1ccccc1 (stereo not given),2%
Cc1cc(Cl)c(OCCN2CCNCC2)c(Br)c1,i
C=CCn1c(SCc2ccc(Cl)c(Cl)c2)nnc1-c1cccc(C)c1,7%
CC1=C(C(=O)OC2CCCCC2)C(c2ccc(O)cc2)NC(=O)N1 (stereo not given),i
CC12CCC(C(=O)NCc3ccc(F)cc3)(CC1=O)C2(C)C (stereo not given),i
Cc1cc(=O)[nH]c(SCCOc2c(C)ccc(C)c2Cl)n1,i
COc1ccc(CN2CCN(C(=O)c3cccc(OC)c3OC)CC2)cc1Br,i
Cc1ccc(N2CC(C(=O)NC3=NCCS3)CC2=O)cc1C (stereo not given),3%
O=C(CSc1nnc(C(O)c2ccccc2)n1-c1ccccc1)c1ccc(F)cc1 (stereo not given),i
CCc1ccccc1NC(=O)c1ccc(-c2cccc(Cl)c2Cl)o1,18%
CC(=O)c1cccc(NC(=O)Cc2ccc3c(c2)CCCC3)c1,1%
O=C(Nc1ccncc1)c1ccc2c(c1)C(=O)N(CC1CCCO1)C2=O (stereo not given),i
